PKD1 kinase inh = blocks activity of human protein kinase D1; hit rate 0.056% among 200,000; Q15139; AID 797; inhibition, %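 (about 10 µM by stock and volumes)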; PKD1 kinase fluorescence polarization assay;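 active means inhibition of 50% or more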;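 further: controls were vehicle for no effect and a reference inhibitor for full effect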
RGS16-Gao = regulators of human RGS16-Galphao interaction; bead-based flow cytometry RGS16-Galphao binding, fluorescence; actives lie on both sides; hit rate 0.38% among 220,000; binding response (% of control), % at 10 µM;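 active means below 25% or above 175%, edge rows of some plates excepted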;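 further: Galphao activated by GDP with aluminum fluoride before binding; 100% = wells without compound and 0% = beads without RGS; some results beyond the cut were filed as inactive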
Target sequence (O15492 whole entry, looked up): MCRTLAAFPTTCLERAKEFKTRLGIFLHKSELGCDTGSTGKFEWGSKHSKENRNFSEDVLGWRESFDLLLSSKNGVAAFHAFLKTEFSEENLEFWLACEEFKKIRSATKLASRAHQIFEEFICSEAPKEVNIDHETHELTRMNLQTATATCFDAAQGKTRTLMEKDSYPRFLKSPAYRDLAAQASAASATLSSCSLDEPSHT
Target sequence (P09471 whole entry, looked up): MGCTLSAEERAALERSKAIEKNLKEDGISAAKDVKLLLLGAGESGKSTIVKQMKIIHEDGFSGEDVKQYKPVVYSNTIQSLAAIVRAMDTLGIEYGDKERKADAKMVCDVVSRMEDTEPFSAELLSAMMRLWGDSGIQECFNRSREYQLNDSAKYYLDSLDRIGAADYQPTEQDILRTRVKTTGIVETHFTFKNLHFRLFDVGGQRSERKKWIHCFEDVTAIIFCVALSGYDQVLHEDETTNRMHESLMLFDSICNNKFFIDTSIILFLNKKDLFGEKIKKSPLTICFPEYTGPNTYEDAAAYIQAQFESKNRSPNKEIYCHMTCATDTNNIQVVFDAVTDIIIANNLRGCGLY
Insulin prom inh = TRM-6 insulin promoter activity inhibition; TRM-6 cells (human fetal islet line), insulin promoter-eGFP reporter, imaging; reporter expression induced with tamoxifen; inhibition, % at 2 µM; hit rate 0.9% among 130,000; AID 1273;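 active means inhibition above the mean plus 3 SD, with well images judged a real hit on visual review, cut at about 60% in these data, passing the limit was not always enough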
HSV replic up = HSV replication enhancement | HSV replication augmentation in cells, fold increase | maximum fold increase | hit rate 0.005% among 220,000;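 active means peak rise of 1.5-fold or more in the series; tested in PC3 cells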;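 further: first round at 10 µM; read as green reporter fluorescence; hits show the peak of a series up to 25 µM; 1 = signal of infected wells without compound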
GALR2 ag = GALR2 (human) receptor agonism; GALR2-expressing cells, agonist activation read-out; hit rate 0.48% among 140,000; activation, %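 (tested at 5 µM)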; AID 803;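 active means above mean plus 3 SD of all compounds, about 5% in these data, not always enough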;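 further: 0% = vehicle buffer wells and 100% = reference agonist at full effect; tested in CHO reporter cells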
Target sequence (O43603 whole entry, looked up): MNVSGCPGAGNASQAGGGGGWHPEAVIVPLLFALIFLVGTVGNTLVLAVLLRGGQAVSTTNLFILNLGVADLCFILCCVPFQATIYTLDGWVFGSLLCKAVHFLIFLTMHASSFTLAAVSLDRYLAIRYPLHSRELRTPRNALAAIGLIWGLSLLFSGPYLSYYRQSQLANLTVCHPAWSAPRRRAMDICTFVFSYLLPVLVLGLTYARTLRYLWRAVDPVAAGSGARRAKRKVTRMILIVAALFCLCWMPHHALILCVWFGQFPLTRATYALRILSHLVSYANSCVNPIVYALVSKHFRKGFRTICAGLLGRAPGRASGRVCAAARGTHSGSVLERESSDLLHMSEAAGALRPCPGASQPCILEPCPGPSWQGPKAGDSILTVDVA
Insulin prom inh cell count = further read-out of Insulin prom inh, marked with its call; normalized cell count, %; measured here: cell count, toxicity; reference of the scale not given here;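 cells exposed to compound for 48 h; stained nuclei by imaging scaled within each plate; lower means fewer cells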
HSV replic up primary fold = second read-out of HSV replic up, no call of its own (marks repeat the call); fold increase; compound at 10 µM; measured here: primary screen fold increase 10 uM; tested in PC3 cells;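 GFP signal in the first replicate; 1 = infected wells without compound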
* marks the source's active call; other numbers are inactive results; i = inactive; / = no result given; [ ] = remark or other dose.

SMILES,Insulin prom inh cell count,GALR2 ag,HSV replic up primary fold,HSV replic up,PKD1 kinase inh,Insulin prom inh,RGS16-Gao
CSCCC1C(=O)OC2(C)CC(C)(C)NC(=S)N12 (configuration not stated),83,-3.9,0.79,i,-4,-125,104
CC1(C)CC(=O)C(C=Nc2ccc(NC3=C(C#N)C(=O)CC(C)(C)C3)cc2)=C(O)C1,/,/,0.97,i,-2,/,101
COc1ccc(-c2nc(NC(=O)c3ccccc3)sc2-c2ccc([N+](=O)[O-])cc2)cc1,109,-1.5,/,/,-6,-17,104
COc1ccc(NS(=O)(=O)c2cc(C(=O)N3CCN(C(C)=O)CC3)ccc2Cl)cc1,149,/,0.98,i,1,-7,97
[O-]/C(=C(\C(=S)Nc1ccc(Cl)cc1)[n+]1ccccc1)c1ccc(OC(F)F)cc1,/,/,0.95,i,-3,/,96
CCC(C(=O)Nc1cc(C(=O)Nc2cc(C)ccn2)ccc1Cl)c1ccccc1 (configuration not stated),114,-0.8,0.94,i,-1,0,106
CCc1c(C)[nH]c(C(=O)OCc2ccccc2)c1C,/,/,0.93,i,-4,/,103
O=C(O)c1cccc(S(=O)(=O)N2CCN(C(c3ccccc3)c3ccccc3)CC2)c1,/,/,1,i,-1,/,95
COC(=O)CSc1nnc(-c2cccs2)n1-c1ccc(Cl)cc1,161,-1.9,0.96,i,-3,-53,96
COc1ccccc1CN=c1c([N+](=O)[O-])nn(-c2ccc3c(c2)OCCO3)n1O,97,-1.4,0.9,i,-11,3,102
Cc1ccc(/C=C/C(=O)NC2=NCCS2)cc1,/,-1.4,1.1,i,-4,/,114
O=C(Cc1noc2ccccc12)Nc1ccc2ccccc2c1,97,-2.5,0.8,i,-4,-45,25*
COc1ccc(CNC(=O)Nc2cccc3ccccc23)cc1,134,0.6,0.98,i,-5,-8,100
COc1cc(SC)ccc1C(=O)OCC(=O)NC1CCCC1,78,/,0.89,i,-6,62,100
CN(C)CC(O)CN1C(=O)N(CN2C(=O)N(CC(O)CN(C)C)C(=O)C2(C)C)C(C)(C)C1=O (configuration not stated),126,/,0.93,i,-2,47,98
COC(=O)c1c(-c2cccnc2)csc1NC(=O)c1cc(C)on1,102,-1.6,0.81,i,1,-121,101
Cc1cc(NC(=O)CSc2ccc(-c3nc4cc(C)c(C)cc4[nH]3)cn2)no1,67,-0.8,0.82,i,18,21,100
CCOc1ccc(CN(C)CC(=O)Nc2ccc([N+](=O)[O-])cc2Cl)cc1,147,-0.6,1.1,i,0,-44,99
CCc1nnc(NC(=O)CN2CCN(C(=O)c3ccccc3)CC2)s1,157,/,0.91,i,-2,0,100
O=C(CNCc1cccnc1)Nc1cc(C(F)(F)F)ccc1N1CCOCC1,/,/,0.93,i,/,/,104
O=C1CC(c2ccc(Br)cc2)NC(c2ccc(Br)cc2)C1c1ccccc1 (configuration not stated),106,0.4,0.99,i,-7,0,100
O=C(NC1CCCC1)C1CCCN(S(=O)(=O)c2cnc[nH]2)C1 (configuration not stated),/,-0.8,0.99,i,4,/,134
CCOC(=O)C1CCN(Cc2cnc(NC(=O)OC)s2)CC1,/,0.4,1.1,i,43,/,103
COc1cccc(NC(=O)c2ccc(NC(=O)C3CC(=O)OC34CCCCC4)cc2)c1 (configuration not stated),/,/,1,i,6,/,99
CCOc1ccccc1CN1CCN(C2CCOCC2)CC1CCO (configuration not stated),/,/,0.77,i,-4,/,115
CSC1=N/C(=C\c2cccc(Cl)c2)C(=O)N1N(C)C,/,/,1.3,i,/,/,89
O=C(O)CCC(NC(=O)c1ccc(Cl)cc1)C(=O)O (configuration not stated),/,/,1,i,0,/,100
CCN(CC)C(=O)CSc1nc(-c2ccccc2)cc(=O)[nH]1,/,/,1,i,-2,/,102
CC1=NN(C(=O)c2c(Br)cnn2C)C(O)(C(F)(F)F)C1 (configuration not stated),32,-1.5,0.97,i,-16,46,102
C=CCc1ccc(OCCCN2CCCC(C)C2)c(OC)c1 (configuration not stated),103,-1.4,1.1,i,2,10,95
O=C(CSc1ccccn1)Nc1nc2ccc(Br)cc2s1,127,0.5,1.1,i,-1,-27,101
CCOc1ccc(NC(=O)Nc2nnc(CC(=O)NCc3ccccc3)s2)cc1,/,/,0.93,i,0,/,105
COc1cc(/C=N/Nc2nc3ccccc3[nH]2)cc(OC)c1O,/,-1.4,0.88,i,0,/,101
CN(Cc1ccccc1)C(=O)c1ccc2c(c1)OCO2,132,-1.4,0.78,i,-7,-6,105
O=C(NCCc1nc2ccccc2[nH]1)/C(=C/c1ccc2c(c1)OCO2)NC(=O)c1ccc(Cl)cc1Cl,105,0.3,0.84,i,-13,-26,88
COc1ccc2[nH]c(=O)c(CN(CCCN3CCOCC3)C(=O)NCc3ccccc3)cc2c1,/,-0.5,0.96,i,-2,/,139
Cc1c(C(=O)N(C)C)c2cc(Cl)ccc2n1O,101,-1.3,1,i,3,25,113
CCC(=O)Nc1ccc2c(c1)ncn2-c1ccccc1C,/,/,0.98,i,0,/,86
C=CCn1c(SCC(=O)N(CC)C2CCS(=O)(=O)C2)nc2ccccc2c1=O (configuration not stated),/,/,0.81,i,/,/,98
COc1ccc(Cl)cc1-c1csc(N)n1,/,/,1,i,-2,/,120
CC(Sc1nc(N2CCOCC2)c2c(c1C#N)CC(C)(C)OC2)C(=O)Nc1ccccc1 (configuration not stated),144,-2.5,0.86,i,-1,-10,96
CC(=O)c1cccc(N(CC(=O)N2CCCCC2)S(C)(=O)=O)c1,123,-2.4,1.1,i,-7,0,98
C=CCOC(=O)C1=C(C)NC(SC)=C(C#N)C1c1ccc(OCC)cc1 (configuration not stated),/,-2.1,1,i,-4,/,104
CC(NC1CCCCC1)C(=O)NN=C(c1ccccc1)c1ccccc1 (configuration not stated),/,/,0.91,i,6,/,91
FC(F)(F)c1cc(-c2cccs2)nc(-n2cc(Br)cn2)n1,/,0.5,0.87,i,1,/,102
CCN(CC)S(=O)(=O)c1cccc(NC(=O)COC(=O)c2n[nH]c(=O)c3ccccc23)c1,/,/,1,i,0,/,101
O=[N+]([O-])c1cccc(/C=N/n2c(COc3ccccc3)n[nH]c2=S)c1,87,-0.2,0.82,i,-5,-11,272*[activator]
Cc1cc2nc(SCC(=O)N(C)C)c3c(c2cc1C)CCCC3,72,-0.5,0.78,i,-8,-9,94
CSc1nc2nccc(-c3ccc(Oc4ccccc4)cc3)n2n1,112,-1.0,0.96,i,-4,-21,101
CC1(C)Cc2c(sc3nnn(CC(=O)Nc4ccccc4)c(=O)c23)CO1,/,/,0.99,i,/,/,92
COc1ccccc1NC(C)C(=O)Nc1ccc(C(C)=O)cc1 (configuration not stated),95,0.3,1.1,i,-12,0,93
O=c1[nH]c2ccccc2n1CCC1CCCCC1,140,-2.2,1.1,i,-4,29,110
COC(=O)c1ccc(C(=O)OC)c(NC(=O)CN2CCC(C)CC2)c1,116,/,0.82,i,2,-40,102
CSc1ccc(/C=N/NC(=O)COc2ccc(Br)cc2Cl)cc1,/,0.0,0.97,i,-5,/,95
COc1ccc(-n2nnc3c(=O)n(Cc4cc(C)ccc4C)cnc32)cc1,109,0.0,0.81,i,8,-36,103
CCN(CC)C(=O)c1sc(NC(=O)Cc2cccs2)c(C#N)c1C,96,-1.7,1.1,i,3,-3,110
Cc1ccc(C(=O)NCC(=O)OCC(=O)c2ccc3c(c2)NC(=O)CO3)cc1,107,/,0.97,i,-3,19,98
O=C(O)/C=C/C(=O)N(Cc1ccccc1)Cc1ccco1,/,-0.4,/,/,-4,/,100
c1ccc(C2=NCCCN2)cc1,88,-1.9,0.95,i,-15,33,99
O=C(NCc1ccco1)c1ccc(S(=O)(=O)c2cccc(S(=O)(=O)N3CCOCC3)c2)cc1,150,1.4,0.83,i,-12,-24,102

New compounds follow.
SMILES,Insulin prom inh cell count,GALR2 ag,HSV replic up primary fold,HSV replic up,PKD1 kinase inh,Insulin prom inh,RGS16-Gao
O=C(CCN1C(=O)c2ccncc2C1=O)Nc1ccc2c(c1)OCCO2,119,-1.2,1,i,0,19,92
CCCn1c(=O)c(-c2nc3ccccc3[nH]2)c(O)c2ccccc21,/,/,0.86,i,2,/,96
C#CCOCCOCCOCCNc1nc(N2CCN(C(=O)[C@H](Cc3cc4ccccc4[nH]3)n3cc([C@@H](N)CC(C)C)nn3)CC2)nc(N2CCN(C(=O)[C@H](Cc3cc4ccccc4[nH]3)n3cc([C@@H](N)CC(C)C)nn3)CC2)n1,/,/,0.81,i,2,/,98
Cc1ccnc2nc(C(=O)OCCOc3ccc(F)cc3)nn12,22,/,1,i,-2,-133,119
Cc1c(NC(=O)c2nn(C)c(=O)c3ccccc23)c(=O)n(-c2ccccc2)n1C,68,-0.5,/,/,-2,16,/
Cc1cccc(NC(=O)c2cc(N3C(=O)CCC3=O)ccc2Cl)n1,114,-1.5,0.7,i,-5,3,104
COc1ccc(NC(=O)NC23CC4CC(CC(C4)C2)C3)cc1OC,71,-2.3,0.88,i,-3,-8,103
NC(=O)c1ccc(F)cc1,125,-2.2,0.74,i,-6,44,12*
CC(C)[C@H](NC(=O)Nc1ccc2c(c1)OCCO2)C(=O)O,92,-0.7,0.96,i,-5,71,103
CN(C[C@H](Cc1ccccc1)N(C[C@@H](Cc1cccc2ccccc12)N(CCc1ccccc1)N=O)N=O)N=O,/,/,0.81,i,4,/,91
O=S(=O)(/N=C(\[O-])C[n+]1ccccc1)c1ccc(Cl)cc1,/,/,0.99,i,/,/,103
COc1ccc(-c2cnn3c4c(c(C)nc23)CCN4C2CCCC2)cc1OC,/,0.2,0.82,i,3,/,91
COCCCn1c(C)nnc1SCc1ccc(C(C)(C)C)cc1,/,/,0.88,i,-3,/,99
CNc1oc(/C=C/c2ccccc2)nc1C#N,/,1.5,0.93,i,-2,/,106
CCOC(=O)c1c(N/N=C/c2cccnc2)n[nH]c1C,/,/,0.85,i,/,/,97
C=C(C)C(=O)OCCCCCCOc1ccc(C(=O)O)cc1,/,-3.6,0.87,i,-5,/,102
O=C(CCS(=O)(=O)c1ccc(Br)cc1)N1CCN(c2ccccc2Cl)CC1,118,0.0,0.97,i,-1,21,98
Cc1nn2c(nc(N3CCCCC3)c3ccccc32)c1C=O,83,0.8,0.98,i,-2,22,105
CCC1CCCCN1c1cc(C)nc2cc(-c3cccc(C)c3)nn12 (configuration not stated),46,-2.5,0.99,i,-10,71,99
CCOc1c2ccc(C(=O)NCc3ccc(OC)cc3)cc2nn1CCOC,/,-3.3,0.64,i,-9,/,97
COc1ccc2cc(C(=O)C3CCCN(C(=O)c4snnc4C)C3)ccc2c1 (configuration not stated),/,/,1.1,i,-1,/,103
CCOC(=O)CN1C(=O)S/C(=C/c2ccc3c(c2)n(C)c(=O)n3C)C1=O,42,0.3,1,i,-5,-75,23*
CCCc1nc(SCC(=O)Nc2nc3c(s2)CCCC3)c2ccccc2n1,/,-0.3,0.87,i,1,/,95
C#CCOCCOCCOCCNc1nc(N2CCN(C(=O)C([C@@H](C)CC)n3cc(C(N)CC(C)C)nn3)CC2)nc(N2CCN(C(=O)[C@H](CCC(=O)O)n3cc(C(N)Cc4ccc(O)cc4)nn3)CC2)n1 (some centres not stated),/,/,0.88,i,5,/,97
CCSc1nc2[nH]ncc2c(=O)[nH]1,139,-0.7,0.97,i,0,-27,99
Cc1c(O)ccc(/C(Cc2ccc3ccccc3n2)=N\N)c1O,/,/,0.88,i,/,/,95
O=C(OCc1nnc(-c2ccc(Cl)cc2)o1)c1ccc(=O)n(Cc2ccccc2)n1,108,-0.5,0.91,i,-4,-3,100
Cc1ccc(C)c(Cn2nnc3c(=O)[nH]c(C4CCCN(C(=O)CC(C)C)C4)nc32)c1 (configuration not stated),/,1.2,1.1,i,5,/,102
COc1ccc([N+](=O)[O-])cc1NC(C)C,/,-1.0,1,i,-6,/,90

3 entries out of the list, ordered by molecular weight, high to low.
SMILES,Insulin prom inh cell count,GALR2 ag,HSV replic up primary fold,HSV replic up,PKD1 kinase inh,Insulin prom inh,RGS16-Gao
CN(C[C@H](Cc1ccccc1)N(C[C@@H](Cc1cccc2ccccc12)N(CCc1ccccc1)N=O)N=O)N=O,/,/,0.81,i,4,/,91
O=C(Cc1noc2ccccc12)Nc1ccc2ccccc2c1,97,-2.5,0.8,i,-4,-45,25*
COc1ccc(Cl)cc1-c1csc(N)n1,/,/,1,i,-2,/,120

Compound activity deposited in PubChem BioAssay by several laboratories.
